Compound activity (PubChem BioAssay)
HCMV UL50-53 inh: cytomegalovirus nuclear egress complex inhibition. HTRF UL50-UL53 interaction, normalized percent inhibition. inhibition, % (concentration not given with the values). 190,000 compounds, 0.15% hits;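 active means both replicates at 50% or more, plus weaker picks with an unusually low signal ratio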;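 further: stock transfer was 100 nL into about 20 µL; 0% = negative control wells and 100% = wells with untagged competitor protein; inactives centre near -12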
Sa growth inh: blocks Staphylococcus aureus growth | S. aureus RN4220 growth, OD600, 20 h, 42 °C; active compounds read low | relative growth, % (concentration not given with the values) | 170,000 compounds, 0.53% hits | AID 720641;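 active means growth at 42 °C up to 50% and 20 or more points under that at 30 °C, or under 10% at both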;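 further: 300 nL library stock went into each well; scaled to the means of positive and negative controls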
GIV Gai3 FP: inhibitors of GIV GBA-motif binding to rat Galpha-i3. P08753. percent of control (FP), % (concentration not given with the values). 210,000 compounds, 0.42% hits. Galpha-i3/FITC-GIV peptide fluorescence polarization, 90 min; active compounds read low; scaled: aluminum fluoride 0%, vehicle 100%;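 active means replicate mean at 85% of control or lower, very high polarization wells dropped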;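 further: wells of about 15 µL received 100 nL stock; the first replicate is given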
Target sequence (P08753 whole entry, looked up): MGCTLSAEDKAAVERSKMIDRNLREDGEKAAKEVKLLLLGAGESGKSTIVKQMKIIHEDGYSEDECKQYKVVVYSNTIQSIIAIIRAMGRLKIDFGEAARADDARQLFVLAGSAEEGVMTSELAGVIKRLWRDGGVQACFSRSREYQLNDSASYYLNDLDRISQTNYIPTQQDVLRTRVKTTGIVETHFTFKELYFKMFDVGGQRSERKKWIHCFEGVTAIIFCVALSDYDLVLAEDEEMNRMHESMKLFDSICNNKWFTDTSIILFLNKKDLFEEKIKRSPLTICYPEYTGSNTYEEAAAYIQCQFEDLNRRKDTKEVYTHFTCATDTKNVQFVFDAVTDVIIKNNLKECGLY
Sa growth inh second temp: further read-out of Sa growth inh, marked with its call; relative growth, %; measured here: growth at 30 °C;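 optical density after 20 h as mean of two plates; 100% = untreated growth and lower means inhibition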
* hit, by the source's call; x = not tested or not shown; & = joins results of further samples.

The line under a structure holds: HCMV UL50-53 inh, Sa growth inh, Sa growth inh second temp, GIV Gai3 FP
O=C(Nc1ccc2nc(SCCOc3ccccc3)sc2c1)c1ccco1
 : 11, 92, 81, 106
COc1ccc(CCNC(=O)c2ccc(-n3c(C)cc4c3CCCC4)cc2)cc1OC
 : x, 87, 90, 102
O=C(NCn1ccc(=O)[nH]c1=S)c1ccccc1
 : x, 119, 85, 98
N#Cc1nc(-c2ccc(S(=O)(=O)N3CCCC3)cc2)oc1N1CCCC1
 : -16, x, x, 100
O=C1C(C=Nc2ccccc2O)=C(O)c2ccccc21
 : x, 100, 76, 98
O=C(c1ccc2c(=O)n(CCC3=CCCCC3)c(=S)[nH]c2c1)N1CCCC1
 : x, 98, 88, 106
O=C(NC1CCCC1)C1CC(c2ccc(F)cc2)=NO1 (stereo unspecified)
 : -1, 124, 90, 100
Oc1ccc(OCc2ccccc2)cc1
 : 9&-10&-40, 102, 105, 107
CCOC(=O)C1=C(N)OC2=C(C(=O)CC(c3ccccc3)C2)C1c1cccc(OC)c1OC (stereo unspecified)
 : -2, x, x, 102
COCCCN1CCn2c(nc3cc(NC(=O)Nc4ccccc4)ccc32)C1
 : -12, x, x, 103
CC1CN(c2c(F)c(F)c3c(=O)c(C(=O)O)cn(C4CC4)c3c2F)CC(C)N1 (stereo unspecified)
 : -17, x, x, 103
O=C(CSc1nnc(-c2sc3ccccc3c2Cl)o1)NCC(F)(F)F
 : -9, 82, 98, x
CCOC(=O)c1nc(Nc2ccc(F)cc2F)c2ccccc2n1
 : -43, x, x, 103
Cc1sc2ncn(CC(=O)N(C)Cc3ccc(Br)s3)c(=O)c2c1C
 : -6, 84, 100, x
Cc1ccc(S(=O)(=O)Nc2cc3c(cc2N2CCOCC2)n(C)c(=O)n3C)cc1
 : -14&-24, 94, 85, 103&104
COC(=O)c1cc2sccc2n1Cc1nc(-c2ccc(Cl)cc2)oc1C
 : -32, 131, 94, 102
CC(C)CC(NC(=O)C1CCC(C)CC1)C(=O)NCc1cccs1 (stereo unspecified)
 : -4, 104, 88, 103
CCn1nc(C(=O)Nc2nccs2)c2ccccc2c1=O
 : -56, 52, 45, x
Cc1cc(NC(=O)c2cnc3c(-c4ccccc4)c(C)nn3c2C)ccc1Br
 : x, 96, 88, 95
COc1ccccc1-c1nnc2sc(-c3cc(C)on3)nn12
 : 8, x, x, 106
Cc1cccc(CSc2nc3c(c(=O)[nH]2)C(C(C)C)C2=C(CC(C)(C)CC2=O)N3)c1 (stereo unspecified)
 : x, 99, 84, 108
O=C(N/N=C/c1ccsc1)C1CC1
 : -6, 87, 94, x
CCOc1ccc(-c2cc3c(=O)n(Cc4nc(-c5ccc(OC)cc5OC)oc4C)ccn3n2)cc1Cl
 : -8, 95, 107, 98
COc1ccccc1NC(=O)C1=C(C)Nc2ccccc2S1
 : 5, 74, 92, x
Cc1sc2ncnc(NCC(C)(C)N3CCOCC3)c2c1C
 : -13, 86, 89, x
CCn1c(Cn2ncc(Cl)c(Cl)c2=O)nc2cc(S(=O)(=O)N(C)C)ccc21
 : -68, 74, 96, x
CCCc1cc2c(cc1NC(=O)C(C)(C)C(=O)Nc1cc3c(cc1CCC)OCO3)OCO2
 : -8, 107, 86, x
CC1(C)C2CC=C(COCC(O)CNC3CC3)C1C2 (stereo unspecified)
 : -22, 82, 91, x
Cc1ccc(-c2csc(-c3ccno3)n2)c(C)c1
 : -7, 114, 72, 101
Cc1nc(Cc2nnc(SCC(=O)c3ccc4c(c3)NC(=O)CO4)o2)cs1
 : -13, 99, 92, x
Cc1cc(C)nc(NC(N)=NC2CCCCC2)n1
 : -10, 85, 81, 99
CCOC(=O)N1CCC(N(CCN(C)C)C(=S)Nc2ccc(OC)c(Cl)c2)CC1
 : -29, 99, 87, 103
O=C(CN1CCOCC1)C12CC3CC(CC(C3)C1)C2
 : -16, 97, 84, 104
N#Cc1c[nH]n2c(NC3CCCCC3)c(-c3ccccc3F)nc12
 : -26, 90, 96, 98
CCCN(CCC)C(=O)c1cc(-c2ccccc2)n[nH]1
 : -7, 89, 91, 98
Cc1cccc(COc2coc(CN3CCc4ccccc4C3)cc2=O)c1
 : -1, 92, 86, 104
CCOC(=O)c1ccc(-c2ccc(/C=C3/C(=O)NC(=S)N(c4ccc(OC)cc4)C3=O)o2)cc1
 : 4, x, x, 104
CCOC(=O)Cc1nnc(-c2ccc(Cl)cc2)o1
 : -14, 102, 86, 114
COc1ccc(CNC(=O)CCC(=O)n2ncc3c(C)cccc32)cc1
 : -23, x, x, 106
O=C(NCc1ccco1)/C(=C/c1cn(-c2ccccc2)nc1-c1cccs1)NC(=O)c1ccccc1
 : -9, 109, 98, 109
COC(=O)C1(C)Cc2c([nH]c3ccccc23)C(c2ccccc2)N1 (stereo unspecified)
 : -2, 120, 86, 106
Cc1ccccc1CNc1ccc2[nH]c(=O)[nH]c2c1
 : -21, x, x, 101
Cn1c(Cc2ccccc2)nnc1SCN1C(=O)c2ccccc2C1=O
 : -44, 66, 81, x
COc1ccccc1CNC(=O)c1cc(S(=O)(=O)N2CCCCCC2)cn1C
 : x, 117, 100, 108
COc1ccccc1-c1nnc2sc(-c3cc(CC(C)C)[nH]n3)nn12
 : -18, x, x, 105
CC1C(=O)CCN(C(C)(C)C)C1C (stereo unspecified)
 : -5, 97, 88, x
CSCCC(C(=O)OC1CCOC1=O)N1C(=O)c2ccccc2C1=O (stereo unspecified)
 : -17, 95, 91, x
CC(C)C(=O)Nc1nncs1
 : -9, 103, 73, 102
Cc1cccc(NC(=O)c2ccc(Cl)cc2N)n1
 : -18, 92, 86, 102
COc1ccc(CN2CCc3nc(SCC(=O)Nc4cc(C)ccc4C)[nH]c(=O)c3C2)cc1
 : -7, x, x, 101
COc1ccc(OC)c(C2C(C(=O)OC(C)C)=C(C)NC3=C2C(=O)CC(c2ccc(Cl)cc2)C3)c1 (stereo unspecified)
 : -21, x, x, 106
Cc1cccc(NC(=O)CSc2c(C)cnc3c2c(=O)n(C)c(=O)n3C)c1C
 : x, 134, 87, 103
CC(C)(C)c1cn2c3ccccc3nc2n1CCCO
 : 10, 103, 82, x
CCC(Sc1nnc(CSc2ncccn2)n1-c1ccc(Cl)cc1)C(=O)OC (stereo unspecified)
 : -21, 97, 87, 101
COc1ccc(-c2nc(S(=O)(=O)c3ccccc3)c(N3CCCCC3)o2)cc1
 : -18, 101, 89, 106
Cc1ccccc1CSc1ncc(CO)n1Cc1ccc(F)cc1
 : x, 143, 106, 101
COC(=O)C1=C(N)OC2=C(C(=O)CCC2)C1c1ccc(OC)cc1 (stereo unspecified)
 : -54, 85, 110, 112
O=C(Nc1ccc(Cn2cnc(-c3nc(-c4ccc(Cl)cc4)no3)c2)cc1)c1ccc2c(c1)OCO2
 : -33, x, x, 104
O=C(c1cc(=O)c2ccccc2o1)N1CCCC1
 : -33, 110, 82, x
COc1ccc2c(c1OC)C(=O)N(c1ccc(O)cc1)C2
 : 7, 88, 88, x

More structures
The line under a structure holds: HCMV UL50-53 inh, Sa growth inh, Sa growth inh second temp, GIV Gai3 FP
OCn1c2c(c3ccccc31)CCCC2
 : x, 112, 77, 101
N#Cc1ccc(C=Nc2cccc(C(N)=O)c2)cc1
 : -4, 95, 121, 107
CCOC(=O)CCn1nc(-c2ccc(Cl)cc2)cc1N
 : -8, 84, 91, 105
CCCCc1nnc(NC(=O)C=C(C)C)s1
 : 8, 90, 76, 105
OC(CNCc1ccc(-c2ccc(Br)cc2)o1)c1ccccc1 (stereo unspecified)
 : -5, x, x, 109
COc1cccc(CNC(=O)CN2N=C(c3ccc(C)cc3)CCC2=O)c1
 : x, 94, 87, 97
O=C(NCc1cccc(F)c1)c1cccc(NC(=O)c2nsc3ccccc23)c1
 : x, 123, 80, 107
CC(C)c1ccc(NC(=O)c2ccc(S(=O)(=O)c3ccc(Br)cc3)nc2)cc1
 : -21, x, x, 102
O=C(COc1ccccc1)Nc1ccc2c(c1)C(=O)NC2=O
 : -24, 112, 63, 100
O=C(CSc1ncc(-c2ccc(Br)cc2)[nH]1)N(Cc1ccco1)CC(F)(F)F
 : -22, 73, 93, x
O=C1N=c2ccccc2=C1c1sc(=S)[nH]c1O
 : -54, 50, 12, 101
Cc1cc(C)cc(NC(=O)CSc2oc(-c3cccs3)nc2S(=O)(=O)c2ccccc2)c1
 : -17, 96, 109, 103
COC(=O)/C=c1\sc2nc3cc(Cl)c(Cl)cc3n2c1=O
 : 9, 115, 97, 106
O=C(Cn1ncc2ccccc21)N1CCc2ccccc21
 : x, 106, 81, 102
CC(C)(C)/C=N/NS(=O)(=O)c1ccc(-c2ccccn2)s1
 : -4, 104, 98, 107

Fetched by structure from the entries so far (4):
The line under a structure holds: HCMV UL50-53 inh, Sa growth inh, Sa growth inh second temp, GIV Gai3 FP
O=C(COc1ccccc1)Nc1ccc2c(c1)C(=O)NC2=O
 : -24, 112, 63, 100
Cc1cc(C)cc(NC(=O)CSc2oc(-c3cccs3)nc2S(=O)(=O)c2ccccc2)c1
 : -17, 96, 109, 103
N#Cc1ccc(C=Nc2cccc(C(N)=O)c2)cc1
 : -4, 95, 121, 107
OC(CNCc1ccc(-c2ccc(Br)cc2)o1)c1ccccc1 (stereo unspecified)
 : -5, x, x, 109

(next part)
The line under a structure holds: HCMV UL50-53 inh, Sa growth inh, Sa growth inh second temp, GIV Gai3 FP
COc1cc2c(C(=O)N3CCN(c4ccccc4)CC3)c(C)n(-c3ccccc3)c2cc1Br
 : 15, x, x, 93
Cc1ccc(-c2nccnn2)cc1
 : x, 97, 79, 102
CCOC(=O)C(C#N)C(c1ccc(F)cc1)C1CCOC(C)(C)C1 (stereo unspecified)
 : -5, 109, 90, 96
COC(=O)c1ccccc1S(=O)(=O)N1CCC(C(=O)Nc2nnc(C)o2)CC1
 : -16, 77, 97, x
Cc1ccc(NCC(O)Cn2nnnc2-c2ccccc2)cc1C (stereo unspecified)
 : -31, x, x, 98
CCC1CCCCN1S(=O)(=O)c1cc2c3c(c1)CC(=O)N3CCC2 (stereo unspecified)
 : x, 100, 88, 93
CC(C)(CO)NC(=O)c1ccc(Cl)cc1
 : -12, 110, 89, 101
Cc1cn(C)c(CC(=O)Nc2cccc(C#N)c2)c1C(=O)O
 : x, 114, 84, 94
COc1ccc(NC(=O)NC2CCN(c3cc(C)nc4ncnn34)CC2)cc1
 : -10, x, x, 104
CCOC(=O)N1CCC(NC(=O)c2oc3c(c2C)-c2[nH]ncc2CC3)CC1
 : x, 92, 70, 100
CC(=O)Nc1ccc(OC(=O)c2cccnc2)cc1
 : 6, 101, 96, 113
CSc1nnc2n(/N=C/c3c[nH]c4ccccc34)cnn12
 : 3, 87, 78, x
CCn1c(SCc2nc3ccccc3c(=O)[nH]2)nnc1C(C)NC(=O)c1ccccc1 (stereo unspecified)
 : -19, 98, 92, 103
O=C(N/N=C/c1ccco1)c1n[nH]c2c1CCC2
 : -59, 102, 88, 103
COc1ccc(C2=CC(c3cc(Br)ccc3F)n3c(nc4ccccc43)N2)cc1 (stereo unspecified)
 : x, 101, 70, 109
COC(=O)C1=C(N)CCCC1
 : -13, 101, 89, 102
CN(C)CC1CCCCC1O (stereo unspecified)
 : 16, 79, 97, x
CC1Cn2c(COc3ccccc3)nnc2S1 (stereo unspecified)
 : 8, 97, 85, x
CC(C)NC(=S)Nc1cccc2cnccc12
 : -59, 96, 88, x
Nc1nn(-c2ccc(Cl)cc2)nc1C(=O)c1ccccc1
 : 22, 94, 88, 105
O=C(NCC(c1cccnc1)N1CCc2ccccc21)C(=O)Nc1ccccc1F (stereo unspecified)
 : 2, 81, 91, 110
COc1ccc(NC(=O)CSc2nc3ncccc3[nH]2)c(OC)c1
 : 6&-35, 94, 94, 101&103
CC(=O)Nc1ccc(-c2nn[nH]n2)cc1
 : 2, 131, 95, 102
CC12CCCCC1(O)N(O)C(C(=O)c1ccccc1)=N2 (stereo unspecified)
 : x, 106, 79, 100
CCn1cc(CN(C)C(=S)Nc2ccc(OC)c(OC)c2)c(C)n1
 : -15, 100, 90, 105
Cc1cc(NC(=O)c2ccc(-c3noc(C4CC4)n3)cc2)no1
 : -8, x, x, 105
CC(C)N(C(=O)Cn1ccnc1)c1ccccc1
 : 19, 90, 91, 104
CN1CCN(NC(=O)CCN2C(=O)/C(=C/c3ccc(Cl)cc3)SC2=S)CC1
 : -17, x, x, 101
C=CCN(CC(=O)Nc1ccc2c(c1)OCO2)S(=O)(=O)c1ccccc1F
 : -8, 93, 89, x
NC(=O)C1CCN(C(=O)CCc2nnc3n(Cc4ccccc4)c(=O)c4ccccc4n23)CC1
 : x, 100, 87, 97
Cc1ccc(Nc2c(-c3ccccc3)nc3ccccn23)cc1
 : x, 105, 94, 101
CCOc1ccc(C2c3c(-c4cc(C)ccc4O)n[nH]c3C(=O)N2CCOC)cc1OCC (stereo unspecified)
 : 2, x, x, 109
Cc1cccc(-c2nn(-c3ccccc3)c3nc(OCC(=O)NCc4cccc(F)c4)cc(C)c23)c1
 : -1, x, x, 107
COc1ccc(-c2nnc(SCC(=O)NCC(F)(F)F)o2)cc1
 : 15, 107, 94, x
CCOC(=O)c1ccc(NC(=O)CCCn2c(=O)c3cccn3c3cccnc32)cc1
 : x, 109, 72, 103
COc1ccc(-c2csc(COC(=O)C(C)(C)C)n2)cc1
 : -3, 99, 90, 100
O=C(COCc1cc(-c2cccs2)on1)Nc1cccc(Cl)c1Cl
 : x, 101, 95, 101
O=C(C1CCCCC1)N1CCN(C(=O)C2CCCCC2)CC1
 : -24, 95, 91, 101
COc1ccc(NC(=O)CN(Cc2ccccc2)S(=O)(=O)c2ccc3nc(C)sc3c2)cc1
 : x, 83, 87, 98
